Screening results as filed in PubChem.
RE007 growth inh – less growth of the S. pombe RE007 Vpr strain | S. pombe RE007 Vpr strain, BacTiter-Glo ATP luminescence, 24 h; control for the full effect not named in the record | Potency, µM (doses to about 92.2 µM), for the others: top-dose activity change, negative = less growth | AID 651644 | hit rate 0.21% among 360,000; active = well fitted falling curve with a large enough effect; inconclusive = small, poorly fitted or top-dose-only effect; inactive = no such curve, though single readings can be large or run the other way;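 also: % is scaled to controls: 0 for no effect and ±100 for the full control effect; nearly all actives have a fitted effect of over 50% in size; the assay follows cell death caused by Vpr and the record does not say whether a fall means rescue or toxicity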
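Fission yeast RE007 carrying one integrated HIV-1 vpr copy, seeded at OD 0.01 in PMG+AL medium with 23 nL pinned compound. Grown 24 h at 30 degrees; viability read by BacTiter-Glo luminescence after 5 min.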
Cruzain inh Det – inhibitors of Trypanosoma cruzi cruzain with detergent | hit rate 0.43% among 200,000 | Potency, µM, inactives show max response, negative = inhibition, most hits filed as inhibitors | AID 1478 | purified cruzain, Z-FR-AMC fluorescence, 0.01% Triton | P25779;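 also: plate controls were neutral wells for no effect and buffer without enzyme for full effect; nearly all actives have a fitted effect of over 40% in size; top concentration of the series not given in the record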
Target sequence (P25779 123-467 limits assumed): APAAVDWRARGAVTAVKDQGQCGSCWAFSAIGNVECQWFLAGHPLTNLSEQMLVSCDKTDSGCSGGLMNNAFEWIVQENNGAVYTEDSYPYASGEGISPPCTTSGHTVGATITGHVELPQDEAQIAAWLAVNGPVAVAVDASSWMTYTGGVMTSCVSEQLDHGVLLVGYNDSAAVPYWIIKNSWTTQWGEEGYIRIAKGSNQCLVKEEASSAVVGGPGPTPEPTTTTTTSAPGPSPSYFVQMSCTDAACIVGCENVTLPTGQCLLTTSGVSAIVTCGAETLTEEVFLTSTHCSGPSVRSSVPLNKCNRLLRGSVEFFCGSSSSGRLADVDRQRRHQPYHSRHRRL
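Steps: dispense cruzain (1.5 nM final) in acetate buffer pH 5.5 with DTT and 0.01% Triton X-100; pin-transfer compounds; incubate 15 min RT; add Z-FR-AMC (2 uM final); read fluorescence every 30 s, using the 60 s intensity change.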
NS1 inh – inhibitors of influenza NS1 protein function; S. cerevisiae slowed by influenza A NS1, growth recovery by OD600; Potency, µM (top dose mostly 46.1 µM), inactives show at the top dose activity, positive = more growth; hit rate 0.4% among 270,000; AID 2326; active means well fitted rising curve with a large enough effect; inconclusive means small, poorly fitted or top-dose-only effect; inactive means no such curve, though single readings can be large or run the other way; also: nearly all actives have a fitted effect of over 50% in size
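In this qHTS, NS1 from influenza A is expressed in budding yeast, where it slows growth. Cells are switched from glucose to 2% galactose medium (pH 6.0, -URA), treated with compound, and growth recovery is read at OD600.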
MARV entry inh – blocks Marburg virus binding to or entry into cells | Marburg virus pseudotyped entry inhibition, cell reporter; control for the full effect not named in the record; about a third of the inactives were read at about 46 µM | AID 540276 | Potency, µM (highest dose often 37.8 µM), for inactives: at the top dose activity change, negative = inhibition, actives largely listed as inhibitors | hit rate 1.8% among 300,000; active = well fitted inhibition curve with a large enough effect; inconclusive = small, poorly fitted or top-dose-only effect, or effect the other way; inactive = flat fitted curve, though single readings scatter; tested in HEK293 cells; about a fifth of its hits are not listed in these tables; also: % is scaled to controls: 0 for no effect and ±100 for the full control effect; luciferase read-out
StopGo reporter – lowers the luciferase signal of an FMDV 2A StopGo reporter | human cells with a luciferase reporter of 2A StopGo recoding; control for the full effect not named in the record | Potency, µM (doses to about 57.9 µM), for the others: at the top dose signal change, negative = less light | hit rate 1.2% among 410,000 | AID 1159524; active = well fitted falling curve with a large enough effect; inconclusive = small, poorly fitted or top-dose-only effect; inactive = no such curve, though single readings can be large or run the other way; tested in HEK293T cells; also: % is scaled to controls: 0 for no effect and ±100 for the full control effect; nearly all actives have a fitted effect of over 45% in size; luciferase light after 4 h
Cruzain inh noDet – blocks cruzain activity in detergent-free assay; purified cruzain, Z-FR-AMC fluorescence, no detergent; Potency, µM, for the others: max response, negative = inhibition, hits mostly inhibitors; hit rate 2.3% among 200,000;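 also: plate controls were enzyme without inhibitor for no effect and buffer without enzyme for full effect; nearly all actives have a fitted effect of over 40% in size; top concentration of the series not given in the record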
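Purified cruzain at 1.5 nM, pre-incubated 15 min with compound at room temperature in 100 mM sodium acetate pH 5.5, 5 mM DTT, 0.00005% Triton X-100. Reaction started with 2 uM Z-FR-AMC; AMC fluorescence increase over 60 s gives rate.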
Lassa entry inh – inhibitors of Lassa virus binding or cell entry; Lassa virus pseudotype entry inhibition, cell reporter; control for the full effect not named in the record; Potency, µM (highest dose often 37.9 µM), for inactives: at the top dose activity change, negative = inhibition, usual class: inhibitors; hit rate 1.2% among 300,000; AID 540256; active means well fitted inhibition curve with a large enough effect; inconclusive means small, poorly fitted or top-dose-only effect, or effect the other way; inactive means flat fitted curve, though single readings scatter; tested in HEK293 cells; also: % is scaled to controls: 0 for no effect and ±100 for the full control effect; nearly all actives have a fitted effect of over 50% in size; luciferase read-out
SARS PLpro yeast – inhibitors of SARS-CoV papain-like protease in yeast; S. cerevisiae expressing SARS-CoV PLpro, growth rescue; control for the full effect not named in the record; Potency, µM (titrated, usually from 32.9 µM), inactives show at the top dose activity, positive = growth rescue; hit rate 0.19% among 330,000; active means well fitted rising curve with a large enough effect; inconclusive means small, poorly fitted or top-dose-only effect; inactive means no such curve, though single readings can be large or run the other way; also: 0% is about no effect; nearly all actives have a fitted effect of over 55% in size; growth read by luminescence after 48 h
Starred values were filed as active, the others as inactive; ? = inconclusive; / = no result given; & = joins results of further samples; [ ] = another dose, or the depositor's remark. Unless noted, calls follow the shape of the dose curve; as a rule, active = well fitted curve in the direction sought with a large enough effect; inconclusive = small, poorly fitted or top-dose-only effect, or another doubt; inactive = no such curve, though single readings can be large; an effect the other way counts as inactive or inconclusive. Potency is read from the fitted curve at half-maximal effect.

SMILES	RE007 growth inh	Cruzain inh Det	NS1 inh	MARV entry inh	StopGo reporter	Cruzain inh noDet	Lassa entry inh	SARS PLpro yeast
Cc1cc(C)cc(-n2c(SCC(=O)NCc3ccco3)nc3c([nH]c4ccccc43)c2=O)c1	/	0.3%	/	/	?	-23%	-23%[46.1 µM]	/
FC(F)(F)c1cccc(NCc2cn3cccnc3n2)c1	-5%	7.2%	-6%	0%	-1%	-11%	3%	4%
COc1ccc(CNC(=O)C2=CC(c3ccc(C)cc3)=NS(=O)(=O)N2C)cc1	-1%	/	9%	/	0%	/	/	-2%
COC(=O)c1ccc(/C=C2\Oc3ccccc3NC2=O)cc1	-4%	/	0%	/	22%	/	/	0%
COc1ccc2c(c1)CC(C(=O)Nc1cc(Cl)ccc1C)CO2 (centres undefined)	/	-2.4%	/	/	2%	3%	-7%[46.1 µM]	/
COc1ccc(NC(=O)CSc2nnc(-c3ccccc3)n2Cc2ccco2)cc1OC	10%	-5.8%	4%	0%	?	2%	-13%	5%
CCCCn1c(N)c(N(Cc2ccccc2OC)C(=O)CC2OC(=O)c3ccccc32)c(=O)[nH]c1=O (centres undefined)	2%	/	/	-7%	1%	/	-2%	-4%
C=Cc1ccc(Cn2c(C(=O)O)c(CNCCc3ccco3)c3ccc(C)cc32)cc1	/	-27%	/	/	-7%	?	-7%[46.1 µM]	/
COc1ccc(C(C#N)c2ccc(=O)[nH]n2)cc1 (centres undefined)	6%	/	1%	?	4%	/	5%	1%
Cc1ccc(C(=O)Nc2ccccc2C(N)=O)o1	-9%	2.8%	-15%	6%	0%	1%	?	/
COc1ccc(C)cc1NC(=O)CCC(=O)Nc1ccc2nc(N3CCN(C)CC3)cc(C)c2c1	7%	-2.5%	-6%	?	-10%	2%	-4%	4%
CCc1ccc(NCc2cc3ccc(OC)cc3n(CC(=O)Nc3cccc(Cl)c3C)c2=O)cc1	/	-3.9%	/	/	-8%	-22%	2%[46.1 µM]	/
CCC(CC)NC(=O)Nc1ccc(F)cc1F	-5%	/	4%	1%	-22%	/	8%	1%
COc1cccc(N2C(=O)C(CC(=O)Nc3cccc(F)c3)N(C(C)C)C2=O)c1 (centres undefined)	/	-3.4%	/	/	-2%	8%	?	/
CCOC(=O)c1ccc(NC(=O)COc2ccc(CNC3CCCCC3)cc2OC)cc1	-14%	/	1%	?	-5%	/	?	0%
O=C1C2CCCC1C(N1CCCCC1)CC2 (centres undefined)	16%	/	5%	16%	-6%	/	?	5%
C[C@@H]1C(c2ccccc2)=NN(c2ccc(Br)cc2)[C@H]1C(=O)N1CCOC1=O	7%	-1.5%	/	/	-27%	?	/	-56%
Cc1cc(NC(=O)CCCn2nc([N+](=O)[O-])cc2C)no1	1%	/	/	-9%[46.1 µM]	-10%	/	-2%[46.1 µM]	1%
COc1cc2c(cc1OC)C(NC(=O)C(F)(F)F)CNC2=O (centres undefined)	28%	/	0%	26%	-13%	/	29%	-5%
COc1ccccc1OCCCCCCN1CCN(C)CC1	10%	/	/	-17%[46.1 µM]	-14%	/	19%[46.1 µM]	/
Cc1ccc(C)c(N2CCN(C(=O)Cn3cnc4sc(C)c(S(=O)(=O)N5CCN(c6ncccn6)CC5)c4c3=O)CC2)c1	/	-4.5%	/	?	?	?	-23%[46.1 µM]	/
CCc1nnc(NC(=O)CSc2nnc(CCc3nc4ccccc4[nH]3)n2C)s1	-7%	2.4%	-1%	?	-2%	-7%	1%	6%
Nc1nc(N)c2[nH]c(=S)[nH]c2n1	-19%	/	/	9%[46.1 µM]	-14%	/	5%[46.1 µM]	/
CCOC(=O)C1CCN(C(=O)COC(=O)C2CCN(S(=O)(=O)c3ccc4c(c3)OCCO4)CC2)CC1	-6%	/	/	22%	-13%	/	-22%	-2%
Cc1cc(Nc2ccc(N3CCOCC3)cc2)c2cccc(C)c2n1	-10%	/	-3%	0.79µM*	-9%	/	-17%	0%
Cc1c(C(=O)N(C)C2CCCCC2)sc2ncnc(N3CCN(c4ccccc4F)CC3)c12	-11%	/	9%	?	-13%	/	?	-47%
Cc1ccc(NC(=O)N2CCC(NC(=O)c3cccc(F)c3)CC2)cc1	-7%	/	0%	13%[46.1 µM]	-11%	/	15%	-2%
CC(C)(C)OC(=O)NCCc1nnc(SCc2c(Cl)cccc2Cl)o1	0%[3.69 µM]	-4.4%	-100%	-5%	6%	-3%	-7%	8%
CCCc1nnc(NC(=O)CSc2nnc3c4ccccc4n(CC)c3n2)s1	/	-6.3%	/	-27%[46.1 µM]	-13%	18%	24%[46.1 µM]	/
CC(NC(=O)CN1CCc2ccccc21)c1ccccc1 (centres undefined)	-14%	-2.1%	?	-2%	-17%	-14%	-7%	29%
Nc1cc([N+](=O)[O-])ccc1O	-2%	1.0%&-5.2%	-6%	?	-13%	-3%&-15%	17%	-8%
Cc1ccc2[nH]c3c(=O)n(Cc4ccco4)cnc3c2c1	4%	/	1%	11%[46.1 µM]	8%	/	-1%	-2%
CN(C)S(=O)(=O)c1ccc2oc(SCC(N)=O)nc2c1	-2%	3.1%	2%	?	19%	-1%	24%	10%
O=C(NCCc1cscn1)C1CCC(=O)N(Cc2ccc(Cl)cc2)C1 (centres undefined)	-14%	/	11%	11%	-6%	/	-7%	-1%
CCC(C)N1C(=O)c2ccccc2C1C(=O)NC1CCCCCC1 (centres undefined)	-5%	5.6%	-2%	-3%	-1%	-2%	1%	6%
C=CCOc1ccc(C(=O)Nc2ccc3c(c2)n(C)c(=O)n3C)cc1	-4%	/	5%	11%	1%	/	-20%	-2%
Cc1cnc(C(=O)Nc2ccccc2-c2nnn(CC(=O)NC3CCCC3)n2)cn1	13%	1.8%	-4%	18%	15%	-1%	-3%	-1%
O=C(CSc1nn(-c2ccc(F)cc2)c(=S)s1)NCC1CCCO1 (centres undefined)	-20%	/	/	-5%	-4%	/	-6%	4%
COc1c(Br)cc2c(C)c(C(=O)N3CCOCC3)oc2c1Br	-2%	-5.5%	-61%	21%[46.1 µM]	-20%	?	?	-4%
O=S(=O)(Nc1ccc(Cl)cc1)c1cccc2cccnc12	6%	/	-7%	4%	55%[activator]	/	-12%	1%
O=C(Nc1cccc(F)c1)Nc1ccc(Cl)cn1	-15%	/	-9%	/	61%[activator]	/	/	-7%
COC(=O)c1cc(NC(=O)c2cc3c(-c4ccccc4F)nn(C)c3s2)cc(C(=O)OC)c1	/	-0.5%	/	-16%[46.1 µM]	-22%	15%	12%[46.1 µM]	/
c1ccc(CNc2cncnc2)cc1	1%	/	6%	/	1%	/	/	1%
O=C(Nc1ccc(Cl)cc1)[C@@H]1[C@@H]2C(=O)N(c3ccc4ccccc4c3)C(=O)[C@@H]2[C@H]2C=CC=NN21	6%	-7.2%	2%	-1%	-9%	16µM*	1%	-1%
O=C(COc1ccc(Cl)cc1)NCc1nnc(SCC(=O)Nc2ccccc2F)o1	1%	/	/	19%[46.1 µM]	-13%	/	24%	-1%
C=CCSc1nnc(-c2c[nH]c3ccccc23)n1CCOC	20%	6.0%	11%	-1%	7%	5%	2%	-7%
CC1CC(=O)Nc2ccccc2N1S(=O)(=O)c1cccc(Cl)c1 (centres undefined)	12%	3.4%	3%	-3%	-13%	11%	-5%	12%
CC1C(c2ccccc2)N(C)C(c2ccccc2)C(C)C1(O)C#Cc1ccccc1 (centres undefined)	-21%	-5.1%	-35%	?	-14%	4%	0%	-106%
CCCOc1cccc(C2/C(=C(/O)c3ccccc3)C(=O)C(=O)N2CCN(C)C)c1 (centres undefined)	3%	-5.6%	6%	?	-4%	-2%	?	?
Cc1ccc(S(=O)(=O)c2nnn3c2nc(NC(C)c2ccccc2)c2sccc23)cc1 (centres undefined)	/	0.5%	/	/	-30%	-9%	-6%[46.1 µM]	/
O=C(CN1CCCN(Cc2ccc(F)cc2Cl)C1=O)NC1CCCCCCC1	-5%	-2.0%	14%	10%	0%	4%	-11%	-1%
O=C(NC1CCCC1)c1cnn(-c2ccc(F)cc2F)c1C1CCNCC1	/	-1.8%	/	/	7%	-15%	?	/
CN(C)c1ccc(CNCCC(Cc2ccccc2)c2ccco2)cc1 (centres undefined)	-21%	/	-30%	15µM*	-27%	/	?	-5%
COc1ccccc1COC(=O)Nc1c(C)nn(C)c1Cl	2%	4.4%	-5%	-5%	-22%	-12%	-1%	-1%
COCCNC(=S)Nc1ccc2nsnc2c1	2%	-2.6%	-3%	0%	49%[activator]	-7%	3%	13%
COc1ccc(NC(=O)c2cncc(Br)c2)cc1S(=O)(=O)N1CCCCC1	2%	-5.5%	5%	?	20µM*	-7%	?	-4%
CCN(CC)c1ccc(N=CN2CCOCC2)cc1	-7%	/	2%	5%[46.1 µM]	3%	/	19%	-1%
Cc1cc(C)cc(-n2ncc3c2CCCC3NC(=O)c2cc(C)n(C)n2)c1 (centres undefined)	-6%	/	-23%	/	-9%	/	/	-12%
CCC(=O)Nc1ccc2c(c1)ncn2CCc1ccccc1	4%	/	1%	/	32%[activator]	/	/	0%
OCCCn1c(CCCNc2nc(-c3cccc(Br)c3)cs2)nc2cc(Cl)c(N3CCCCC3)cc21	0%	/	-7%	/	?	/	/	-3%
The results go on:
SMILES	RE007 growth inh	Cruzain inh Det	NS1 inh	MARV entry inh	StopGo reporter	Cruzain inh noDet	Lassa entry inh	SARS PLpro yeast
Cc1cc(C(=O)NNC(=S)Nc2ccccc2C)cs1	/	2.6%	-14%	?	41%[activator]	-15%	?	-9%
COc1ccc(N(CC(=O)NC2CCCCC2)C(=O)CNC(=O)c2ccco2)cc1OC	13%	3.9%	2%	7%[46.1 µM]	13%	-8%	-5%	-16%
COc1ccc(C(c2nnnn2C(C)(C)C)N2CCN(c3nc4ccccc4s3)CC2)cc1OC (centres undefined)	3%	-9.5%	1%	?	-18%	?	3%	19%
CC(C)Oc1cccnc1N(C)C1CCN(Cc2ccccc2)CC1	-27%[18.4 µM]	-3.0%	-11%	1.8µM*	-21%	3%	-9%	/
Cc1cccc(-n2c(C)cc(C=C(C#N)C#N)c2C)c1	-16%	-2.8%	8%	4%	-14%	-28%	12%	7%
CC(C)CCNC(=O)CSc1nc2ccccc2nc1Cc1ccccc1	/	-0.9%	/	/	-8%	4%	13%[46.1 µM]	/
